NPYLR7 ag = mosquito NPYLR7 agonism; HEK293T NPYLR7/Galpha15, GCaMP6s calcium fluorescence; activation, % at 10 µM; actives 0.15% (n = 270,000); AID 1259423; in the data active = activation above about 40%;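 also: 0% = vehicle and 100% = reference agonist at the receptor; some compounds past the cut are filed as inactive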
NPYLR7 ag max-min = also measured in NPYLR7 ag; calls as there; activation, %; measured here: Max-Min RFU normalised activation; some inactives read as strong as hits;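 span of the calcium signal over five minutes; 0% = vehicle and 100% = native peptide agonist; compound fluorescence can raise it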
Active calls of the source: *. Not all compounds are listed (hit frequency here may not be typical).

> CCN(CCOc1ccc(F)cc1)C(=O)c1ccc(CO)cc1
  NPYLR7 ag: -0.6
  NPYLR7 ag max-min: -7.0

> CN1CCN(Nc2ncnc3scc(-c4ccc(F)cc4)c23)CC1
  NPYLR7 ag: 5.4
  NPYLR7 ag max-min: 0.2

> COc1cccc(COC2CN(CC(C)C)C(=O)CN(C(=O)c3ccc(C#CC(C)(C)O)o3)C2)c1 (stereo not drawn)
  NPYLR7 ag: 11.3
  NPYLR7 ag max-min: -6.3

> Cc1cc2cc(C(=O)N3CCCC(CO)(CCOc4ccccc4)C3)ccc2o1 (stereo not drawn)
  NPYLR7 ag: 13.7
  NPYLR7 ag max-min: 1.6

> CCn1c(C2CCCN(C(=O)CSc3nncn3C)C2)nn(C)c1=O (stereo not drawn)
  NPYLR7 ag: -1.7
  NPYLR7 ag max-min: -5.2

> CN(CCc1ccccn1)C(=O)CNc1ccnc2cc(F)ccc12
  NPYLR7 ag: 5.3
  NPYLR7 ag max-min: 4.5

> CCOC(=O)CCc1c(C)nc2ncnn2c1N1CCN(S(=O)(=O)c2ccc(OC(F)(F)F)cc2)CC1
  NPYLR7 ag: 22.3
  NPYLR7 ag max-min: 16.3

> COc1cc(C(=O)N(Cc2cccnc2)c2nc3c(Cl)cccc3s2)cc(OC)c1OC
  NPYLR7 ag: -6.6
  NPYLR7 ag max-min: -7.7

> Cc1cc(F)ccc1NC(=O)CCC1CCCN(C(=O)C2CCCC2)C1 (stereo not drawn)
  NPYLR7 ag: 2.3
  NPYLR7 ag max-min: 0.3

> CCn1nnnc1SCC(=O)Nc1ncc(Cc2cccc(Cl)c2)s1
  NPYLR7 ag: -7.8
  NPYLR7 ag max-min: -9.9

> Nc1nc2ccc(Br)cc2s1
  NPYLR7 ag: -0.1
  NPYLR7 ag max-min: -6.7

> CC(C)CC1(C)NC(=O)NC1=O (stereo not drawn)
  NPYLR7 ag: 3.3
  NPYLR7 ag max-min: 1.3

> O=C(CS(=O)Cc1nnnn1-c1ccccc1)Nc1cccc(F)c1 (stereo not drawn)
  NPYLR7 ag: -0.7
  NPYLR7 ag max-min: 15.3

Part of the list above in a different format.
Value order – NPYLR7 ag | NPYLR7 ag max-min
COc1cccc(COC2CN(CC(C)C)C(=O)CN(C(=O)c3ccc(C#CC(C)(C)O)o3)C2)c1 (stereo not drawn)
 : 11.3 | -6.3
Cc1cc2cc(C(=O)N3CCCC(CO)(CCOc4ccccc4)C3)ccc2o1 (stereo not drawn)
 : 13.7 | 1.6
CCn1c(C2CCCN(C(=O)CSc3nncn3C)C2)nn(C)c1=O (stereo not drawn)
 : -1.7 | -5.2

Copied from the list.
NPYLR7 ag max-min result of `CN1CCN(Nc2ncnc3scc(-c4ccc(F)cc4)c23)CC1` → 0.2
NPYLR7 ag max-min result of `Cc1cc(F)ccc1NC(=O)CCC1CCCN(C(=O)C2CCCC2)C1` (stereo not drawn) → 0.3

Source: PubChem BioAssay
